Assay outcomes from PubChem BioAssay.
NOMO-1 viab = NOMO-1 AML cell viability reduction, primary screen, STK33 inhibitor project, CellTiter-Glo luminescence; NOMO-1 AML viability, 72 h; 37,000 tested, 7.5% active; inhibition, % (test concentration not listed);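 active means most replicates above 80%; inconclusive means exactly half above 80%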;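 further: wells of about 30 µL received 25 nL stock; 0% = median of vehicle wells and 100% = reference inhibitor level; the first replicate is given; inactives centre near 10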
* marks the source's active call; other numbers are inactive results; u = inconclusive.

SMILES | NOMO-1 viab
C[C@@H]1CN([C@@H](C)CO)C(=O)c2cccc(NC(=O)C3CCOCC3)c2O[C@H]1CN(C)C(=O)Nc1ccc(C(F)(F)F)cc1 | -3.1
CNC[C@H]1Oc2ccc(NS(=O)(=O)c3ccc(F)cc3)cc2C(=O)N([C@H](C)CO)C[C@@H]1C | 12.6
C[C@@H]1CN([C@@H](C)CO)C(=O)c2cccc(NC(=O)c3nc4ccccc4s3)c2O[C@H]1CN(C)C(=O)Nc1ccc(C(F)(F)F)cc1 | 43.3
CC(C)NC(=O)Nc1cccc2c1O[C@H](CN(C)Cc1ccc(Cl)c(Cl)c1)[C@H](C)CN([C@@H](C)CO)C2=O | 12.0
C[C@@H]1CN([C@@H](C)CO)C(=O)c2cc(NS(=O)(=O)c3cn(C)cn3)ccc2O[C@@H]1CN(C)S(=O)(=O)c1cn(C)cn1 | -10.6
COc1ccc(CN(C)C[C@@H]2Oc3ccc(NC(=O)Nc4ccc(C(F)(F)F)cc4)cc3C(=O)N([C@H](C)CO)C[C@@H]2C)cc1 | 114.0*
Cc1cc(C)c(C(=O)N2Cc3ccccc3NC2=S)c(C)c1 | 18.6
C[C@H]1CN([C@@H](C)CO)C(=O)c2cc(NS(=O)(=O)c3cccs3)ccc2O[C@H]1CN(C)Cc1ccc(-c2ccccc2)cc1 | 24.9
C[C@H]1CN([C@@H](C)CO)C(=O)c2cc(NC(=O)Cc3ccccc3)ccc2O[C@H]1CN(C)Cc1ccc(C(=O)Nc2ccccc2N)cc1 | 108.2*
COc1ccc(CN(C)C[C@@H]2Oc3ccc(NC(=O)NC4CCCCC4)cc3CC(=O)N([C@@H](C)CO)C[C@@H]2C)cc1 | 9.0
C[C@@H]1CN([C@@H](C)CO)C(=O)c2cc(NC(=O)c3ccncc3)ccc2O[C@@H]1CN(C)C(=O)NC1CCCCC1 | 2.6
C[C@@H]1CN([C@@H](C)CO)C(=O)c2cc(NC(=O)Nc3ccc(F)cc3)ccc2O[C@@H]1CN(C)C(=O)Nc1cccc2ccccc12 | 69.3
CC(=O)Nc1ccc(OCC(=O)Nc2ccc(Cl)c(Cl)c2)cc1 | -5.4
C[C@H]1CN([C@@H](C)CO)C(=O)Cc2cc(NC(=O)Cn3cnnn3)ccc2O[C@@H]1CN(C)C(=O)Nc1ccc(F)cc1 | 29.5
O=c1[nH]nc(-c2ccc(NCc3cccnc3)c([N+](=O)[O-])c2)c2ccccc12 | 37.5
CC(C)CC1NC(=O)C2CCCN2C1=O (configuration not stated) | -4.5
CC(C)(C)c1cc(-c2nnc(-c3cccs3)o2)n(Cc2ccc(F)cc2)n1 | 62.3
C[C@@H]1CCCCO[C@H](CN(C)CC2CCCCC2)[C@@H](C)CN([C@H](C)CO)C(=O)c2cc(NC(=O)Nc3ccccc3)ccc2O1 | u
Cc1occc(=O)c1CC=O | 11.1
CNC[C@@H]1Oc2ccc(NC(=O)Nc3cccc4ccccc34)cc2C(=O)N([C@@H](C)CO)C[C@@H]1C | 29.7
Cc1noc(C)c1NC(=O)Nc1ccc2c(c1)CC(=O)N([C@H](C)CO)C[C@H](C)[C@H](CN(C)Cc1ccncc1)O2 | 2.7
COc1ccc(NC(=O)CSc2[nH]c(=O)cc(C)c2C#N)cc1OC | 28.3
C[C@@H]1CN([C@@H](C)CO)C(=O)c2cccc(NS(=O)(=O)c3ccc(Cl)cc3)c2O[C@H]1CN(C)Cc1ccc(Cl)c(Cl)c1 | 18.6
O=S(=O)(CCSc1nccc(-c2ccc(Cl)cc2)n1)c1ccc(Cl)cc1 | 18.1
C[C@@H]1CN([C@@H](C)CO)C(=O)Cc2cc(NC(=O)CCN3CCOCC3)ccc2O[C@@H]1CN(C)Cc1ccncc1 | 12.3
CS(=O)(=O)N(CC(=O)Nc1ccc(F)cc1F)c1cc(Cl)c(Cl)cc1Cl | 24.3
CC(C)NC(=O)N(C)C[C@H]1Oc2c(NC(=O)Nc3ccc(F)cc3)cccc2C(=O)N([C@H](C)CO)C[C@@H]1C | 15.6
C[C@@H]1CCCCO[C@@H](CN(C)C(=O)c2ccncc2)[C@@H](C)CN([C@H](C)CO)C(=O)c2cc(NC(=O)CCCCCC(=O)Nc3ccccc3N)ccc2O1 | 31.1
COc1ccccc1CC(=O)Nc1cc([N+](=O)[O-])ccc1OC | 7.6
Cc1ccc2nc(-c3ccc(Cl)c(NC(=O)COc4ccc(Br)cc4)c3)oc2c1 | 7.0

A few values from the entries so far:
COc1ccc(NC(=O)CSc2[nH]c(=O)cc(C)c2C#N)cc1OC in NOMO-1 viab has 28.3
CC(C)NC(=O)N(C)C[C@H]1Oc2c(NC(=O)Nc3ccc(F)cc3)cccc2C(=O)N([C@H](C)CO)C[C@@H]1C in NOMO-1 viab has 15.6

(further entries)
SMILES | NOMO-1 viab
COc1ccc(NC(=O)Nc2ccc3c(c2)C(=O)N([C@@H](C)CO)C[C@H](C)[C@@H](CN(C)Cc2ccc(Cl)c(Cl)c2)O3)cc1 | 30.9
CC(C)NC(=O)Nc1ccc2c(c1)CC(=O)N([C@H](C)CO)C[C@@H](C)[C@H](CN(C)C)O2 | -4.8
COc1ccc(S(=O)(=O)Nc2ccc3c(c2)CC(=O)N([C@@H](C)CO)C[C@H](C)[C@H](CN(C)S(=O)(=O)c2cccs2)O3)cc1 | 28.9
C[C@H]1CN([C@@H](C)CO)C(=O)Cc2cc(NC(=O)Nc3ccc(F)cc3)ccc2O[C@@H]1CN(C)C | 18.0
C[C@@H]1CN([C@@H](C)CO)C(=O)c2cccc(N(C)C)c2O[C@@H]1CN(C)S(=O)(=O)c1cn(C)cn1 | 26.1
COC(=O)c1ccccc1NC(=O)CN(c1cccc2ccccc12)S(C)(=O)=O | 29.1
C[C@@H]1CN([C@@H](C)CO)C(=O)c2cc(NC(=O)Nc3ccc4c(c3)OCO4)ccc2O[C@@H]1CN(C)Cc1ccc(C(=O)O)cc1 | 6.0
Cc1ccc(N(CC(=O)Nc2ccc(F)c(Cl)c2)S(C)(=O)=O)cc1 | -12.3
C[C@@H]1CN([C@@H](C)CO)C(=O)c2cc(N(C)C)ccc2O[C@@H]1CN(C)C(=O)Nc1ccc(F)cc1 | 15.5
C[C@@H]1CN([C@H](C)CO)C(=O)c2cccc(NC(=O)Nc3ccccc3)c2O[C@@H]1CN(C)Cc1ccc(C(F)(F)F)cc1 | 38.2
Cc1noc(C)c1NC(=O)Nc1ccc2c(c1)CC(=O)N([C@@H](C)CO)C[C@H](C)[C@H](CN(C)Cc1ccc3c(c1)OCO3)O2 | 10.2
C[C@H]1CN([C@@H](C)CO)C(=O)Cc2cc(NC(=O)Cn3cnnn3)ccc2O[C@H]1CN(C)C(=O)Nc1ccc(C(F)(F)F)cc1 | 1.0
CC(C)NC(=O)N(C)C[C@H]1Oc2ccc(NC(=O)C3CC3)cc2C(=O)N([C@@H](C)CO)C[C@@H]1C | 1.7
COC(=O)CCC(=O)Nc1nccs1 | -18.6
CC(Oc1cccc(Cl)c1)C(=O)Nc1ccccc1C(=O)O (configuration not stated) | 0.3
C[C@H]1CN([C@@H](C)CO)C(=O)c2cccc(NC(=O)c3ccc(-c4nccs4)cc3)c2O[C@@H]1CN(C)S(=O)(=O)c1ccc(Cl)cc1 | 16.6
Cc1nn(S(=O)(=O)c2ccccc2[N+](=O)[O-])c(C)c1Sc1ccccc1 | 60.5
CC(C)NC(=O)N(C)C[C@@H]1Oc2ccc(NC(=O)C3CCCCC3)cc2C(=O)N([C@@H](C)CO)C[C@@H]1C | 21.8
Cc1noc(C)c1S(=O)(=O)Nc1cccc2c1O[C@H](CN(C)S(=O)(=O)c1ccc(F)cc1)[C@H](C)CN([C@H](C)CO)C2=O | 57.2
C[C@@H]1CN([C@H](C)CO)C(=O)Cc2cc(NC(=O)Cc3cn(C)c4ccccc34)ccc2O[C@H]1CN(C)S(=O)(=O)c1ccc(F)cc1 | 18.3

Quoted at random: six records from the list, in no set order.
SMILES | NOMO-1 viab
C[C@@H]1CN([C@H](C)CO)C(=O)Cc2cc(NC(=O)Cc3cn(C)c4ccccc34)ccc2O[C@H]1CN(C)S(=O)(=O)c1ccc(F)cc1 | 18.3
C[C@H]1CN([C@@H](C)CO)C(=O)Cc2cc(NC(=O)Cn3cnnn3)ccc2O[C@H]1CN(C)C(=O)Nc1ccc(C(F)(F)F)cc1 | 1.0
O=c1[nH]nc(-c2ccc(NCc3cccnc3)c([N+](=O)[O-])c2)c2ccccc12 | 37.5
C[C@H]1CN([C@@H](C)CO)C(=O)Cc2cc(NC(=O)Nc3ccc(F)cc3)ccc2O[C@@H]1CN(C)C | 18.0
CS(=O)(=O)N(CC(=O)Nc1ccc(F)cc1F)c1cc(Cl)c(Cl)cc1Cl | 24.3
Cc1cc(C)c(C(=O)N2Cc3ccccc3NC2=S)c(C)c1 | 18.6

Returning to the listing with the three entries that preceded the break.
SMILES | NOMO-1 viab
CC(C)NC(=O)N(C)C[C@@H]1Oc2ccc(NC(=O)C3CCCCC3)cc2C(=O)N([C@@H](C)CO)C[C@@H]1C | 21.8
Cc1noc(C)c1S(=O)(=O)Nc1cccc2c1O[C@H](CN(C)S(=O)(=O)c1ccc(F)cc1)[C@H](C)CN([C@H](C)CO)C2=O | 57.2
C[C@@H]1CN([C@H](C)CO)C(=O)Cc2cc(NC(=O)Cc3cn(C)c4ccccc34)ccc2O[C@H]1CN(C)S(=O)(=O)c1ccc(F)cc1 | 18.3
C[C@H](CO)N1C[C@H](C)[C@H](CN(C)S(=O)(=O)c2ccccc2)Oc2ccc(NS(=O)(=O)c3ccccc3)cc2CC1=O | 0.0
Cc1ccc(S(=O)(=O)Nc2ccc3c(c2)C(=O)N([C@H](C)CO)C[C@H](C)[C@H](CN(C)Cc2ccc(Oc4ccccc4)cc2)O3)cc1 | 65.3
CNS(=O)(=O)c1ccc(Br)cc1I | 21.4
CC1OC(Oc2cc(O)c3c(=O)c(OC4OCC(O)C(O)C4O)c(-c4ccc(O)cc4)oc3c2)C(O)C(O)C1O (configuration not stated) | -4.1
CCOC(=O)CCCSc1nc2c(c(C(F)(F)F)c1C#N)CC(C)CC2 (configuration not stated) | -3.8
Cn1c(CN2CCOCC2)nnc1SCC(=O)Nc1cc(C(F)(F)F)ccc1Cl | 9.6
CC(=O)O[C@@H]1CC2C(C)(C)CCC[C@]2(CO)C2=C1C(=O)C(C(C)C)C(=O)C2=O (some centres not stated) | 3.1
C[C@@H]1CN([C@@H](C)CO)C(=O)c2cc(NS(=O)(=O)c3cccs3)ccc2O[C@@H]1CN(C)S(C)(=O)=O | 12.7
C[C@H]1CN([C@@H](C)CO)C(=O)Cc2cc(NC(=O)Nc3ccc(F)cc3)ccc2O[C@@H]1CN(C)Cc1ccc(C(=O)O)cc1 | -3.1
C[C@@H]1CCCCO[C@@H](CN(C)Cc2ccc3c(c2)OCO3)[C@@H](C)CN([C@H](C)CO)C(=O)c2cc(NS(=O)(=O)c3ccccc3)ccc2O1 | 17.2
C[C@H](CO)N1C[C@H](C)[C@H](CN(C)S(C)(=O)=O)Oc2ccc(N(C)C)cc2C1=O | 13.3
Cc1nc2ccccc2n1CC(O)COCC1CC=CCC1 (configuration not stated) | 40.6
COc1ccc(NC(=O)N(C)C[C@H]2Oc3c(NC(=O)Nc4c(C)noc4C)cccc3C(=O)N([C@@H](C)CO)C[C@H]2C)cc1 | 17.9
COc1ccc(S(=O)(=O)N(C)C[C@@H]2Oc3c(NC(=O)Nc4ccc(C(F)(F)F)cc4)cccc3C(=O)N([C@H](C)CO)C[C@H]2C)cc1 | 54.1
CC(C)NC(=O)Nc1cccc2c1O[C@H](CN(C)C(=O)Nc1ccc(C(F)(F)F)cc1)[C@H](C)CN([C@@H](C)CO)C2=O | 34.0
O=C(CSc1nnc(-c2cccs2)n1-c1ccccc1)N1CCc2ccccc21 | -8.4
Cc1noc(C)c1NC(=O)N(C)C[C@@H]1OCCCC[C@@H](C)Oc2ccc(NC(=O)Nc3ccc4c(c3)OCO4)cc2C(=O)N([C@H](C)CO)C[C@@H]1C | -12.5
C[C@H](CO)N1C[C@H](C)[C@@H](CN(C)Cc2ccc(C(F)(F)F)cc2)Oc2c(NS(=O)(=O)c3cn(C)cn3)cccc2C1=O | 7.7
COc1ccc(C(=O)Nc2ccc(Cc3ccc(NC(=O)c4ccc(OC)cc4)c(O)c3)cc2O)cc1 | -22.3
Cc1noc(C)c1NC(=O)Nc1cccc2c1O[C@H](CN(C)C(=O)Nc1c(C)noc1C)[C@H](C)CN([C@@H](C)CO)C2=O | 7.0
C[C@@H]1CN([C@H](C)CO)C(=O)c2cc(NC(=O)Nc3cccc4ccccc34)ccc2O[C@H]1CN(C)CC1CCCCC1 | 40.8
O=c1cc(-c2ccccc2)oc2ccc(O)cc12 | 7.6
O[C@@H]1[C@@H](O)[C@H](OC/C=C/c2ccccc2)O[C@H](CO[C@@H]2OC[C@H](O)[C@H](O)[C@H]2O)[C@H]1O | 9.8
Cc1cc(=O)[nH]c(SCCOc2ccc(C(=O)c3ccccc3)cc2)n1 | -21.6
C[C@H]1CN([C@@H](C)CO)C(=O)c2cccc(NS(=O)(=O)c3cn(C)cn3)c2O[C@H]1CN(C)Cc1ccc2c(c1)OCO2 | 10.8
CC1=C(C(=O)NN)Sc2ccccc2N1 | -17.7
C[C@@H]1CN([C@H](C)CO)C(=O)Cc2cc(NS(C)(=O)=O)ccc2O[C@H]1CN(C)C(=O)Nc1ccc2c(c1)OCO2 | -23.1
Cc1noc(C)c1NC(=O)Nc1ccc2c(c1)C(=O)N([C@H](C)CO)C[C@H](C)[C@@H](CN(C)S(=O)(=O)c1ccccc1)OCCCC[C@@H](C)O2 | 34.4
CC1=CC(=O)C2=C(C)CC[C@@H]3[C@H](OC(=O)[C@H]3C)[C@@H]12 | 11.9
C[C@H]1CN([C@@H](C)CO)C(=O)Cc2cc(NS(C)(=O)=O)ccc2O[C@@H]1CN(C)Cc1ccc(C(=O)O)cc1 | -30.9
COc1ccc(CN(C)C[C@@H]2Oc3c(NC(=O)Nc4cccc5ccccc45)cccc3C(=O)N([C@@H](C)CO)C[C@@H]2C)cc1 | 4.5
Cc1noc(C)c1NC(=O)N(C)C[C@H]1Oc2ccc(NC(=O)Nc3ccc(C(F)(F)F)cc3)cc2CC(=O)N([C@@H](C)CO)C[C@H]1C | 31.1
C[C@H]1CN([C@@H](C)CO)C(=O)c2cc(NC(=O)Nc3ccc4c(c3)OCO4)ccc2O[C@H]1CN(C)S(=O)(=O)c1cn(C)cn1 | 27.9

Some of the compounds tested (hit frequency here may not be typical).
